CBX7 inh: inhibitors of human CBX7 binding to H3K27me3 peptide | O95931 | AlphaScreen His6-CBX7 / biotin-H3K27me3 peptide binding; active compounds read low | normalised signal (fraction of DMSO) (no concentration beside the values) | actives 1.1% (n = 66,000) | AID 1224903; in the data active = normalised signal below about 0.5;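 note: 100 nL library stock added to about 20 µL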
Target sequence (O95931 whole entry, looked up): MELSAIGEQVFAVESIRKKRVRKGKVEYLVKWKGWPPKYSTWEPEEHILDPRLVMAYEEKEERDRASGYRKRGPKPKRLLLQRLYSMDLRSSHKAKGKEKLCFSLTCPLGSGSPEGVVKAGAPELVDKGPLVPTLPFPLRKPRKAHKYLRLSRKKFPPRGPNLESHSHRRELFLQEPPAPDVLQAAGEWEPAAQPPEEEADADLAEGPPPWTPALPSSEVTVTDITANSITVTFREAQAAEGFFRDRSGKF
CBX7 inh z-score: second read-out of CBX7 inh, no call of its own (marks repeat the call); z-score; measured here: z-score of CBX7 signal; some inactives read as strong as hits; reference of the scale not given here;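 same signal on another scale; lower means less binding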
An asterisk follows results filed as active; & = joins results of further samples. These rows are one share of the data. The share of hits here may be higher or lower than overall.

Values run as follows: CBX7 inh | CBX7 inh z-score
- CCN(CC)C(=O)Cn1cnc2sc(C(=O)N3CCCCC3)c(C)c2c1=O
    1 | 0.79
- CCOc1ccc(-c2nc3cc(N)ccc3o2)cc1
    0.97 | -0.87
- COc1ccccc1NC(=O)c1c(NCc2cccc(F)c2)sc2c1CCCC2
    0.56 | -6.1
- COc1ccc(Cl)cc1Nc1nc(-c2ccccn2)cs1
    0.96 | -0.57
- Cc1nc2ccccn2c1-c1csc(Nc2ccc(Cl)cc2)n1
    0.95 | -0.96
- COc1ccccc1NS(=O)(=O)c1c[nH]c(=O)c2ccccc12
    1.1 | 0.1
- Cc1nc2ccc(S(=O)(=O)N(C)CC(=O)NC3CCCCC3C)cc2s1 (configuration not stated)
    1.3 | 2
- COc1ccc(C2CC(=O)N(CC(N)=O)c3ccccc3S2)cc1OC (configuration not stated)
    1.2 | 2.3
- O=C(CSc1nc(-c2ccc3c(c2)OCO3)cn1-c1cccc(Cl)c1)Nc1ccccc1
    0.83 | -1.7
- COc1ccc(-c2cc(C(=O)NCc3ccccn3)c3ccccc3n2)cc1OC
    0.88 | -3.5
- CC(c1ccccc1)n1c(CCCO)nc2ccccc21 (configuration not stated)
    1 | 0.44
- Oc1ccc(Cl)cc1-c1cc(-c2ccc(C(F)(F)F)cc2)n[nH]1
    0.85&1 | -2.4&0.94
- CCN(CC)CCSc1nc(O)c(C(C)C)c(=O)[nH]1
    1.2 | 3.1
- Cc1ccc(NC(=O)C2CCN(S(=O)(=O)c3c(C)nn(C)c3C)CC2)c(Cl)c1
    1.1 | 0.84
- COc1ccc2cc(CCNC(=O)c3cc(Cl)ccc3OC)c(=O)[nH]c2c1
    0.99 | -0.22
- Cc1cc(C)cc(-n2ccnc2SCC(=O)Nc2ccc(Br)cc2)c1
    0.84 | -0.16
- CCCCNC(=O)c1cc(Nc2ccc(C)c(C)c2)nc2ccccc12
    0.93 | -0.93
- CCOc1ccc(NC(=O)CC2Oc3ccccc3NC2=O)cc1 (configuration not stated)
    0.95 | -0.96
- CCc1ccc(NC(=O)CCc2c(C)nc3cc(-c4ccccc4OC)nn3c2C)cc1
    0.92 | -1.3
- CCCCNC(=O)C1CC(=O)N(CCc2ccccc2)C1 (configuration not stated)
    1 | 0.058

Molecules shown so far with an NH in an aromatic ring (four):
Values run as follows: CBX7 inh | CBX7 inh z-score
- COc1ccccc1NS(=O)(=O)c1c[nH]c(=O)c2ccccc12
    1.1 | 0.1
- Oc1ccc(Cl)cc1-c1cc(-c2ccc(C(F)(F)F)cc2)n[nH]1
    0.85&1 | -2.4&0.94
- CCN(CC)CCSc1nc(O)c(C(C)C)c(=O)[nH]1
    1.2 | 3.1
- COc1ccc2cc(CCNC(=O)c3cc(Cl)ccc3OC)c(=O)[nH]c2c1
    0.99 | -0.22

Next entries.
Values run as follows: CBX7 inh | CBX7 inh z-score
- CCCS(=O)(=O)NCCc1cc2ccc(OC)cc2[nH]c1=O
    1.1 | 1.7
- CCC(=O)Nc1cccc(Oc2ccc3c(c2)C(=O)N(c2ccc(OC)cc2)C3=O)c1
    1 | 1.2
- CC(C)CCn1c(C2CC(=O)N(Cc3ccccc3)C2)nc2ccccc21 (configuration not stated)
    0.84 | -1
- COc1ccc(NC(=O)CCNS(=O)(=O)c2ccc3c(c2)CCN3C(C)=O)cc1
    0.88 | -2.2
- CCOc1ccccc1CNC(=O)c1ccc2nc(N3CCC(C)CC3)sc2c1
    0.96 | -1.2
- COc1ccc(CCNC(=O)CSc2nnc(CNC(=O)c3cccs3)o2)cc1OC
    0.97 | -0.72
- O=C(NCCc1ccc(Cl)cc1)C1CC(=O)N(C2CCCCCCC2)C1 (configuration not stated)
    1 | 0.94
- CCOC(=O)c1cnc2c(OC)cccc2c1Nc1ccc(F)cc1
    0.88 | -2.1
- CCC(c1ccccc1)c1nnc(NC(=O)c2ccc(Cl)cc2Cl)s1 (configuration not stated)
    0.99 | -0.05
- CCN1C(=O)c2ccccc2S(=O)(=O)c2ccc(C(=O)NCc3cccnc3)cc21
    0.89 | -3.1
- Cc1ccnc(NC2c3ccccc3C(=O)N2Cc2ccccc2Cl)c1 (configuration not stated)
    1.1 | 1.5
- COc1ccc(NC(=O)Nc2ccc3c(c2)N(C)C(=O)CS3)cc1Cl
    1 | 1.3
- CC(NC(=O)CCCC1=NS(=O)(=O)c2ccccc2N1)c1ccccc1 (configuration not stated)
    0.93 | -1.1
- Cc1cccc(NC(=O)CSc2nccn2-c2ccc(F)cc2)c1
    0.8 | -1.5
- O=C(NCc1ccccn1)c1ccc2c(c1)NC(=O)C1CCCN21 (configuration not stated)
    0.75 | -4.5
- CCN(CC)C(=O)Cn1cnc2sc(C(=O)Nc3c(F)cccc3F)c(C)c2c1=O
    1 | 1.4
- COC(=O)c1ccccc1NC(=O)CCc1c(C)nc2c(-c3ccc(F)cc3)c(C)nn2c1C
    1.1 | 2.3
- CCN1CCN(Cc2c(O)c(Cl)cc3c(C)cc(=O)oc23)CC1
    1 | 0.35
- CNC(=O)c1ccc2c(c1)N=C(C)c1c(C)ccc(C)c1S2
    0.96 | -0.63
- O=C(NC1CCCC1)c1ccc2c(c1)N(Cc1ccccc1F)C(=O)c1ccccc1S2=O (configuration not stated)
    0.99 | -0.33
- CCC(=O)N1CCc2cc(S(=O)(=O)NCc3ccccn3)ccc21
    1 | 0.2
- CCCn1c(COc2ccc(C)cc2)nc2ccccc21
    0.82 | -1.9
- CCOC(=O)N1CCN(c2nc(-c3ccccc3)c3ccccc3n2)CC1
    1.6 | 5.9
- O=C(CN1N=C(c2ccccc2)CCC1=O)NCCCN1CCc2ccccc2C1
    1 | 0.38
- CCOC(=O)c1[nH]c2cc3c(cc2c1CCCN1C(=O)c2ccccc2C1=O)OCCO3
    1 | 1.1
- Fc1ccc(-c2nnc3ccc4ccccc4n23)cc1
    0.87 | -2
- CCOc1cc(/C=C/c2cc(C(F)(F)F)[nH]c(=O)n2)ccc1OCc1ccc(F)cc1
    1 | 0.021
- O=C(Nc1cc(C(F)(F)F)ccc1Oc1ccccc1-c1ccccc1)c1cccnc1
    0.81 | -5.3
- O=C(COc1ccc(Cl)cc1)Nc1ccccc1-c1nc2ccccc2[nH]1
    0.9 | -0.44
- COc1ccc(-n2ccnc2SCC(=O)Nc2cc(Cl)ccc2OC)cc1
    1.1 | 0.12
- CCOc1ccc(Nc2nc(C)cc(C)c2C(N)=O)cc1
    0.96 | -1.6
- CCCc1nc2ccccc2n1CC(O)COc1ccc(C(=O)OC)cc1 (configuration not stated)
    0.79 | -2.9
- O=C1CC(Cc2ccc(Cl)cc2)C(=O)N1c1nccs1 (configuration not stated)
    1 | 0.12
- O=C(Nc1ncn[nH]1)c1ccc(F)cc1
    0.63 | -7.2
- COc1ccc(CCNC(=O)CSCc2nc(-c3ccc(OC)c(OC)c3)oc2C)cc1OC
    0.85 | -2.5
- O=C(Nc1ncn[nH]1)c1ccccc1O
    0.17* | -38*
- CC1=Nc2cc(C(=O)NCCN3CCOCC3)ccc2Sc2c(C)ccc(C)c21
    0.89 | -1.7
- O=C(NCc1ccccc1)c1ccccc1-c1nc2ccccc2[nH]1
    1.2 | 0.37
- Cc1ccc(Nc2c(-c3ccccc3)nc3ccc(Br)cn23)cc1
    1 | 0.081
- O=C(NC1CCCCC1)C(c1ccccc1)N1CCCC1 (configuration not stated)
    1 | 2
- COc1cc2c(cc1OC)C(c1cc(Br)c(OC)c(OC)c1)CC(=O)N2 (configuration not stated)
    1 | 0.61
- CCn1c(COc2ccccc2OC)nc2ccccc21
    1 | 1
- CC(C)Sc1oc(-c2ccccc2)nc1S(=O)(=O)c1ccc(Br)cc1
    1.1 | 3.4
- CC(=O)Nc1cccc(NC(=O)c2n[nH]c(=O)c3ccccc23)c1
    1 | 0.23
- CN(c1ccccc1)S(=O)(=O)c1ccc(C(=O)Nc2ccccc2-c2nc3ccccc3[nH]2)cc1
    0.92 | -1.3
- Cc1ccc(-c2nnc(SCC(=O)N3CC(C)CC(C)C3)o2)cc1 (configuration not stated)
    1.2 | 2.5
- Cc1cc2ccccc2c(=O)n1CC(=O)NCC(=O)N1CCCCCC1
    1.3 | 3
- O=C(NCCCN1CCN(Cc2ccccc2)CC1)c1csc2c1CCCC2
    1 | 1.1
- CCc1cccc(NC(=O)C(NS(=O)(=O)c2ccc3nc(C)sc3c2)C(C)C)c1 (configuration not stated)
    1 | 0.64
- Cc1ccc(-c2nc(-c3ccc(Br)cc3)[nH]c2-c2ccccc2)cc1C
    0.69 | -9.3
- O=C(Nc1ccc2nc(-c3ccccc3)[nH]c2c1)c1ccccc1F
    0.97 | -0.24
- CCOc1ccc2cc(-c3nc4ccccc4s3)c(=O)oc2c1
    1 | 0.28
- O=C(NCCN1CCOCC1)c1cc(Sc2cccc(Cl)c2)nc2ccccc12
    1 | 0.089
- CCC(CC)C(=O)NCCc1cc2ccc(C)cc2[nH]c1=O
    1 | 1.5
- CCOc1ccc2nc(N3CCCC(C(=O)NCCc4ccc(OCC)c(OCC)c4)C3)sc2c1 (configuration not stated)
    0.95 | -1.5
- O=C(Nc1cccc(-c2nc3ccccc3[nH]2)c1)c1cccc(Br)c1
    1 | 0.076
- CCn1c(C(=O)N2CCCC(C(=O)N3CCN(c4ccccn4)CC3)C2)cc2sccc21 (configuration not stated)
    0.85 | -0.67
- CCN(CC)C(=O)c1ccc2c(c1)N(Cc1ccc(F)cc1)C(=O)c1ccccc1S2=O (configuration not stated)
    0.98 | -0.22
- O=C(NCCC1=CCCCC1)c1ccc2c(c1)N(Cc1ccc(Cl)cc1)C(=O)CS2
    1.1 | 2.2
- COc1ccc(CCNc2oc(COc3ccccc3F)nc2C#N)cc1
    0.77 | -0.31

Carrying on:
Values run as follows: CBX7 inh | CBX7 inh z-score
- CCc1ccc(-n2c(C)nc3cc(C(=O)NCCC4=CCCCC4)ccc32)cc1
    0.66 | -6
- COc1ccc2c(c1)c(=O)c(S(=O)(=O)c1ccccc1)cn2CC(=O)Nc1cccc(C)c1
    0.87 | -1.8
- CCc1nc2c(cnn2-c2ccc(Cl)cc2)c(=O)n1-c1ccc(OC)cc1
    0.76 | -3.7
- O=C(NCC1CCCO1)c1ccc2c(c1)ncn2C1CCCC1 (configuration not stated)
    0.9 | -1.2
- COc1ccc(OCCCn2c(C3CC(=O)N(c4cc(C)ccc4C)C3)nc3ccccc32)cc1 (configuration not stated)
    0.99 | -0.046
- CC(C)c1ccc(NC(=O)Cn2c(SCc3ccccc3F)nc3ccncc32)cc1
    0.99 | -0.61
- O=C(c1ccc(Cl)c(Cl)c1)N1CCc2c([nH]c3ccccc23)C1c1ccccc1 (configuration not stated)
    0.77 | -4.1
- O=C(CSc1nnc(-c2ccccc2F)o1)N1CCCC1
    1 | 1.8
- Cc1ccc(-c2csc(-c3cccnc3)n2)cc1
    0.99 | -0.11
- COCCNC(=O)c1cc2n(n1)C(C(F)(F)F)CC(c1ccc(Br)cc1)N2 (configuration not stated)
    0.99 | -0.19
- C=CCn1c(C2CC(=O)N(c3cc(Cl)ccc3OC)C2)nc2ccccc21 (configuration not stated)
    1.1 | 0.63
- O=C(NCCCN1CCCC1)c1csc2c1CCCCC2
    0.95 | -1.3
- Cc1ccc(-c2nnc(N3CCN(C)CC3)c3ccccc23)cc1
    0.96 | -0.99
- COc1ccc(Cl)cc1C1CC(=O)Nc2cc3c(cc21)OCO3 (configuration not stated)
    1 | 0.35
- O=C(Nc1cccnc1)c1cc(-c2ccc(O)cc2)on1
    1.1 | 2.8
- CCC1(C(O)(C#CCN2CCCCC2)c2ccccc2)CCCC1 (configuration not stated)
    1.1 | 0.47
- O=C(CC1Sc2ccccc2NC1=O)Nc1cccc2ccccc12 (configuration not stated)
    0.93 | -1.6
- Cc1ccc(-c2noc(CN3CCN(C(c4ccccc4)c4ccccc4)CC3)n2)cc1
    0.94 | -0.082
- CCn1cc(C(=O)N2CCn3c(nc4ccccc43)C2)c(=O)c2ccc(C)nc21
    1.1 | 0.53
- CC(C)(C)c1ccc(OCC(=O)Nc2ccc(-c3nc4ncccc4o3)cc2)cc1
    0.88 | -1.3
- Clc1ccccc1-c1nc(-c2ccccc2)no1
    1.3 | 10
- CCOC(=O)c1cn(CC)c2cc(N(C)CCc3ccc(OC)c(OC)c3)c(F)cc2c1=O
    0.8 | -0.27
- CC(C)CC(=O)Nc1ncnc2c1C(=O)CC(C)(C)C2
    0.92 | -1.3
- CC(C)(C)c1cc(Sc2nnc(-c3ccc(C(N)=O)cc3)c3ccccc23)cc(C(C)(C)C)c1O
    0.68 | -7.2
- CCCCOc1ccc(C(C)NC(=O)CN2CCN(Cc3ccc(Cl)cc3)C2=O)cc1 (configuration not stated)
    1 | 0.38
- COc1ccc(Cc2cnc(NC(=O)COc3ccccc3OC)s2)cc1
    0.82 | -0.21
- COc1ccc2nc(SCc3ccc(C(=O)O)cc3)[nH]c2c1
    1 | 0.81
- Cc1cc(=O)n2nc(N3CCC(C(=O)Nc4cccc(C)c4C)CC3)sc2n1
    1 | -0.038
- O=C(NCc1ccc2c(c1)OCO2)c1cc2c(s1)CS(=O)(=O)C2
    1 | 1.6
- C=CCn1c(=O)c(-c2ccc3ccccc3n2)cc2ccccc21
    1.2 | 2.2
- Cc1oc(-c2cccc(Cl)c2)nc1CN1CCC(C(=O)NCCCSCCC(C)C)CC1
    0.79 | -1.3
- CCN1CCN(c2ccc(NC(=O)CCc3c(C)nc4cc(-c5ccccc5)nn4c3C)cc2)CC1
    1.2 | 2.2
- COC(=O)c1ccc(C(=O)Nc2c(C(N)=O)oc3ccccc23)cc1
    1 | 0.87
- CCN(CC)CC(C)CNC(=O)c1cc(=O)[nH]c2ccc(S(=O)(=O)N3CCCCC3)cc12 (configuration not stated)
    1.1 | 2.5

Four successive compounds from above, for reference:
Values run as follows: CBX7 inh | CBX7 inh z-score
- Clc1ccccc1-c1nc(-c2ccccc2)no1
    1.3 | 10
- CCOC(=O)c1cn(CC)c2cc(N(C)CCc3ccc(OC)c(OC)c3)c(F)cc2c1=O
    0.8 | -0.27
- CC(C)CC(=O)Nc1ncnc2c1C(=O)CC(C)(C)C2
    0.92 | -1.3
- CC(C)(C)c1cc(Sc2nnc(-c3ccc(C(N)=O)cc3)c3ccccc23)cc(C(C)(C)C)c1O
    0.68 | -7.2
